Compound activity (PubChem)
NS1 function inh = qHTS Assay for Inhibitors of Influenza NS1 Protein Function; S. cerevisiae slowed by influenza A NS1, growth recovery by OD600; Potency, µM (top dose mostly 46.1 µM), for inactives: at the highest dose activity, positive = more growth; hit rate 0.4% among 270,000; AID 2326, 2010; further: actives are rising curves; nearly all actives have a fitted effect of over 50% in size
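Growth recovery, yeast-based: influenza A NS1 expressed in S. cerevisiae causes slow growth, and suppressors are detected by OD600. The parent strain without NS1 is used as positive control.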
Cruzain inh Det = qHTS Assay for Promiscuous and Specific Inhibitors of Cruzain (with detergent); Cruzipain (Trypanosoma cruzi), P25779; AID 1478, 2009; hit rate 0.43% among 200,000; Potency, µM, inactives show max response, negative = inhibition, hits mostly inhibitors; purified cruzain, Z-FR-AMC fluorescence, 0.01% Triton; active means well fitted curve in the direction sought with a large enough effect; inconclusive means small, poorly fitted or top-dose-only effect, or another doubt; inactive means no such curve, though single readings can be large; an effect the other way counts as inactive or inconclusive;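 further: plate controls were neutral wells for no effect and buffer without enzyme for full effect; nearly all actives have a fitted effect of over 40% in size; top concentration of the series not given in the record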
Target sequence (P25779 123-467 limits assumed): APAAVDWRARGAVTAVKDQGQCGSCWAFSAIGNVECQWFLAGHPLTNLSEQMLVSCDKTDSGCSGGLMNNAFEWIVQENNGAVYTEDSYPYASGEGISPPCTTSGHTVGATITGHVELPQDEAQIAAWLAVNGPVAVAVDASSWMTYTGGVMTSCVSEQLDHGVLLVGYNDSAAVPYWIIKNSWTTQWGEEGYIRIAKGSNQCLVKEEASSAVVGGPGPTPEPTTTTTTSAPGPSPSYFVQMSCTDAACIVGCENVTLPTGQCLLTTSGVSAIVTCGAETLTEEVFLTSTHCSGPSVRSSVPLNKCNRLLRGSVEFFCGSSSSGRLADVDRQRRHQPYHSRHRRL
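Sodium acetate buffer (100 mM, pH 5.5) containing 5 mM DTT and 0.01% Triton X-100 hosted 1.5 nM cruzain and test compound for 15 min at room temperature. Cleavage of 2 uM Z-FR-AMC was then tracked by fluorescence.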
LASV entry inh = qHTS for Inhibitors of binding or entry into cells for Lassa Virus; Lassa virus pseudotype entry inhibition, cell reporter; control for the full effect not named in the record; Potency, µM (highest dose often 37.9 µM), for the others: top-dose activity change, negative = inhibition, usual class: inhibitors; hit rate 1.2% among 300,000; AID 540256, 2011; active means well fitted inhibition curve with a large enough effect; inconclusive means small, poorly fitted or top-dose-only effect, or effect the other way; inactive means flat fitted curve, though single readings scatter; tested in HEK293 cells; further: on the % scale 0 is the no-effect control and ±100 the full control effect; nearly all actives have a fitted effect of over 50% in size; luciferase read-out
Cruzain noTriton = qHTS Assay for Promiscuous and Specific Inhibitors of Cruzain (without detergent); Cruzipain (Trypanosoma cruzi), P25779; purified cruzain, Z-FR-AMC fluorescence, no detergent; Potency, µM, for inactives: max response, negative = inhibition, most hits filed as inhibitors; hit rate 2.3% among 200,000; AID 1476, 2009; active means well fitted curve in the direction sought with a large enough effect; inconclusive means small, poorly fitted or top-dose-only effect, or another doubt; inactive means no such curve, though single readings can be large; an effect the other way counts as inactive or inconclusive;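 further: plate controls were enzyme without inhibitor for no effect and buffer without enzyme for full effect; nearly all actives have a fitted effect of over 40% in size; top concentration of the series not given in the record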
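Detergent-free condition (0.00005% Triton X-100) in acetate buffer pH 5.5 with DTT. 1.5 nM enzyme and compound were pre-mixed 15 min, then 2 uM Z-FR-AMC substrate added; reaction progress from fluorescence change between first and third reads (60 s).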
MARV entry inh = qHTS for inhibitors of binding or entry into cells for Marburg Virus; Marburg virus pseudotyped entry inhibition, cell reporter; control for the full effect not named in the record; about a third of the inactives were read at about 46 µM; Potency, µM (series often up to 37.8 µM), without a hit: at the top dose activity change, negative = inhibition, actives largely listed as inhibitors; hit rate 1.8% among 300,000; active = well fitted inhibition curve with a large enough effect; inconclusive = small, poorly fitted or top-dose-only effect, or effect the other way; inactive = flat fitted curve, though single readings scatter; tested in HEK293 cells; about a fifth of its hits are not listed in these tables; further: on the % scale 0 is the no-effect control and ±100 the full control effect; luciferase read-out
SARS PLP yeast = qHTS of Yeast-based Assay for SARS-CoV PLP. S. cerevisiae expressing SARS-CoV PLpro, growth rescue; control for the full effect not named in the record. Potency, µM (top dose mostly 32.9 µM), without a hit: top-dose activity, positive = growth rescue. hit rate 0.19% among 330,000; further: 0% is about no effect; nearly all actives have a fitted effect of over 55% in size; growth read by luminescence after 48 h
2A StopGo = High Throughput Screening for Foot and Mouth Disease Virus Antivirals. human cells with a luciferase reporter of 2A StopGo recoding; control for the full effect not named in the record. Potency, µM (highest dose often 57.9 µM), for the others: at the highest dose signal change, negative = less light. hit rate 1.2% among 410,000; active = well fitted falling curve with a large enough effect; inconclusive = small, poorly fitted or top-dose-only effect; inactive = no such curve, though single readings can be large or run the other way; tested in HEK293T cells; further: on the % scale 0 is the no-effect control and ±100 the full control effect; nearly all actives have a fitted effect of over 45% in size; luciferase light after 4 h
RE007 growth inh = qHTS Assay for Inhibitors of the HIV-1 protein Vpr; S. pombe RE007 Vpr strain, BacTiter-Glo ATP luminescence, 24 h; control for the full effect not named in the record; Potency, µM (series often up to 92.2 µM), for inactives: top-dose activity change, negative = less growth; hit rate 0.21% among 360,000; AID 651644, 2012; active = well fitted falling curve with a large enough effect; inconclusive = small, poorly fitted or top-dose-only effect; inactive = no such curve, though single readings can be large or run the other way;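 further: on the % scale 0 is the no-effect control and ±100 the full control effect; nearly all actives have a fitted effect of over 50% in size; the assay follows cell death caused by Vpr and the record does not say whether a fall means rescue or toxicity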
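Fission yeast RE007 carrying one integrated HIV-1 vpr copy, seeded at OD 0.01 in PMG+AL medium with 23 nL pinned compound. Grown 24 h at 30 degrees; viability read by BacTiter-Glo luminescence after 5 min.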
* hit, by the source's call; ? = inconclusive; . = no result given; & = joins results of further samples; [ ] = remark or other dose. Unless noted, the call rests on the fitted dose curve; in most records, active means well fitted rising curve with a large enough effect; inconclusive means small, poorly fitted or top-dose-only effect; inactive means no such curve, though single readings can be large or run the other way. Potency means the concentration at half of the fitted maximal effect. An unsorted share of the library (roughly 4.5% active in at least one column).

SMILES	NS1 function inh	Cruzain inh Det	LASV entry inh	Cruzain noTriton	MARV entry inh	SARS PLP yeast	2A StopGo	RE007 growth inh
O=C(NNC(=S)Nc1ccc(F)c(Cl)c1)C1CC1	2.9%	.	.	.	.	0.4%	56.1%[activator]	17.5%
CC(C)(C)c1nnc2sc(SCC(=O)c3cccs3)nn2c1=O	8.8%	-8.0%	-16.4%	-8.2%	-13.4%	-1.9%	?	-23.7%
Cc1ccc(C(=O)O)cc1N=Nc1c(O)[nH]c(=O)[nH]c1=O	.	.	3.0%	.	-20.2%[46.1 µM]	0.5%	2.4%	-16.3%
CN(CC(=O)Nc1c(Cl)cccc1Cl)C(=O)C1CCN(C(=O)Nc2ccccc2)CC1	.	.	9.7%	.	-12.9%	-6.4%	-18.1%	0.3%
Cc1c(Cl)cccc1N(CC(=O)O)S(C)(=O)=O	3.7%	4.7%	13.2%	7.0%	4.1%	2.1%	-0.3%	6.2%
O=C1CCCN1c1nccs1	.	.	17.8%[46.1 µM]	.	11.5%[46.1 µM]	1.7%	-10.6%	0.7%
Cc1cc(C(=O)NCc2cccs2)n(-c2ccccc2)n1	?	1.6%	.	1.8%	.	-1.2%	0.6%	-2.4%
CC1(C)Cc2nc3oc4c(SCC(N)=O)ncnc4c3cc2CO1	-0.4%	.	-9.5%[46.1 µM]	.	-2.4%[46.1 µM]	-1.4%	25.0%	2.6%
CN(C)CCCNCCCNC(=O)/C(=N\O)c1ccccc1	-5.3%	.	1.6%	.	0.0%	1.9%	-8.7%	1.3%
COc1cc(OC)cc(C(=O)Nn2cc(C(=O)N3CCN(C)CC3)c3ccccc3c2=O)c1	-3.2%	4.5%	10.8%	-10.5%	-7.3%&-7.3%	-1.3%	-7.4%	-15.6%
COc1cccc(CNC(=O)CSC2=Nc3ccccc3C3=NC(C)C(=O)N23)c1OC (stereo not drawn)	.	-7.1%	?	-9.0%	.	.	-9.6%	.
CC(C)(C)C(=O)Cn1c(NCCCl)nc2ccccc21	.	.	-1.2%	.	-1.3%[46.1 µM]	2.3%	-5.1%	3.7%
O=C(CN(c1ccc(Br)cc1)S(=O)(=O)c1ccc(Cl)c([N+](=O)[O-])c1)NCCc1ccccc1	0.5%	.	23.5%	.	?	0.1%	-23.9%	-9.4%
O=[N+]([O-])c1ccc(SCc2ccco2)cc1N1CCOCC1	.	.	12.5%[46.1 µM]	.	-15.8%[46.1 µM]	1.8%	9.1%	-25.4%
Cc1cc(C)cc(C(=O)NC(CC(N)=O)c2ccc(N3CCCCCC3)c([N+](=O)[O-])c2)c1 (stereo not drawn)	?	.	.	.	.	-3.6%	-0.2%	3.6%
Cc1c(N2C(=O)C3C4C=CC(C5CC45)C3C2=O)c(=O)n(-c2ccccc2)n1C (stereo not drawn)	0.6%	.	21.4%[46.1 µM]	.	-18.9%[46.1 µM]	1.1%	9.0%	-2.1%
CCCc1cc(C(=O)NNC(=S)NCc2ccccc2)cs1	-2.8%	-0.4%	17.4%	8.3%	-4.5%	.	0.6%	-15.5%
CCOc1ccc(S(=O)(=O)N2CCC(C(=O)NCCN3CCOCC3)CC2)cc1C	7.2%	.	-0.5%	.	3.5%[46.1 µM]	-3.5%	5.3%	2.4%
Cc1ccc(S(=O)(=O)N2CCCCC2)cc1NC(=O)CCOc1ccccc1	-5.1%	-6.1%	-18.2%	-7.7%	0.2%	?	0.0%	-4.4%
CC1CCC(NC(=O)c2nc(Cn3ccc([N+](=O)[O-])n3)no2)CC1 (stereo not drawn)	4.8%	.	.	.	22.4%[46.1 µM]	-0.2%	-13.5%	6.1%

Gathered by group: the compounds so far with a tert-butyl group (2)
SMILES	NS1 function inh	Cruzain inh Det	LASV entry inh	Cruzain noTriton	MARV entry inh	SARS PLP yeast	2A StopGo	RE007 growth inh
CC(C)(C)c1nnc2sc(SCC(=O)c3cccs3)nn2c1=O	8.8%	-8.0%	-16.4%	-8.2%	-13.4%	-1.9%	?	-23.7%
CC(C)(C)C(=O)Cn1c(NCCCl)nc2ccccc21	.	.	-1.2%	.	-1.3%[46.1 µM]	2.3%	-5.1%	3.7%

Filtered by structure, the compounds so far containing an aryl thioether with sulfur outside any ring.
SMILES	NS1 function inh	Cruzain inh Det	LASV entry inh	Cruzain noTriton	MARV entry inh	SARS PLP yeast	2A StopGo	RE007 growth inh
CC(C)(C)c1nnc2sc(SCC(=O)c3cccs3)nn2c1=O	8.8%	-8.0%	-16.4%	-8.2%	-13.4%	-1.9%	?	-23.7%
CC1(C)Cc2nc3oc4c(SCC(N)=O)ncnc4c3cc2CO1	-0.4%	.	-9.5%[46.1 µM]	.	-2.4%[46.1 µM]	-1.4%	25.0%	2.6%
O=[N+]([O-])c1ccc(SCc2ccco2)cc1N1CCOCC1	.	.	12.5%[46.1 µM]	.	-15.8%[46.1 µM]	1.8%	9.1%	-25.4%

Next structures
SMILES	NS1 function inh	Cruzain inh Det	LASV entry inh	Cruzain noTriton	MARV entry inh	SARS PLP yeast	2A StopGo	RE007 growth inh
Cc1ccc(C(=O)c2cc([N+](=O)[O-])ccc2N2CCCCC2)cc1C	1.1%	-7.0%	?	-18.3%	?	-10.5%	-20.1%	-2.3%
CC1CCCN(CCOc2ccc3ccccc3c2Br)C1 (stereo not drawn)	-6.6%	.	?	.	?	-0.2%	6.6%	-9.4%
Cc1ccccc1N=C1SC(CC(=O)Nc2ccc3ccccc3c2)C(=O)N1Cc1ccccn1 (stereo not drawn)	14.1µM*	-1.7%	16.4µM*	?	?	7.6%	?	6.5%
O=C(NCC(c1ccc(F)cc1)N1CCOCC1)c1ccc([N+](=O)[O-])o1 (stereo not drawn)	.	.	-14.1%	.	?	2.1%	-10.8%	-9.0%
CCCOC1CCCN(C(=O)CCc2nnc(CCCCc3ccccc3)o2)C1 (stereo not drawn)	-2.1%	.	.	.	.	-0.5%	8.5%	18.7%
Cc1cccc(C)c1C(OCCN(C)C)C1CCCCC1 (stereo not drawn)	-11.4%	1.6%	?	4.3%	20.6µM*	-15.9%	?	.
Cc1ccc(S(=O)(=O)C2C(=O)N(C)C3(C)CC2c2ccccc2O3)cc1 (stereo not drawn)	8.0%	0.3%	11.5%	3.7%	-3.9%	18.7%	-16.2%	-0.2%
O=C(Cn1c(=O)n(CCc2ccccc2)c(=O)c2cccnc21)Nc1ccc(F)cc1	.	-4.5%	.	-3.8%	-15.5%[46.1 µM]	.	-9.6%	.
CCCC(=O)Nc1ccc2c(c1)C(=O)NC2=O	0.1%	4.6%	.	4.0%	.	-2.7%	-19.5%	8.4%
CCCCSc1nnc2n(-c3cccc(C)c3)c(=O)c3c4c(sc3n12)CCCC4	.	2.1%	19.9%[46.1 µM]	2.3%	-6.6%[46.1 µM]	.	-10.1%	.
O=C(/C=C/c1c[nH]c2ccccc12)c1cccc2ccccc12	-6.5%	-12.1%	?	?	?	-65.4%	21.4%	4.9%
CCC(C)(C)NC(=O)CN(Cc1cccs1)C(=O)C(=O)Nc1ccc2c(c1)OCCO2	-5.5%	1.6%	?	3.4%	?	5.1%	.	14.1%
C=CCNCCOc1c(C)cc(C)cc1Cl	-1.7%	-9.2%	1.4%	-4.3%	-25.1%	-1.3%	-24.8%	-3.4%
Cc1ccc(N2C(=O)CC(C3CCCO3)C2=O)cc1 (stereo not drawn)	4.5%	5.3%	0.1%	-2.8%	0.5%	-5.2%	4.9%	12.6%
CC(OC(=O)c1ccc(-c2ccc(O)cc2)cc1)C(=O)NC1CCCCC1C (stereo not drawn)	.	.	-15.3%	.	?	4.9%	0.0%	-10.3%
CCN(C(=O)CN1CCN(Cc2ccccc2)CC1)c1c(N)n(Cc2ccccc2)c(=O)[nH]c1=O	-5.3%	.	15.8%	.	-13.7%[14.2 µM]	-6.5%	-13.2%	-5.2%
Cc1ccc(S(=O)(=O)Nc2cccc(C(=O)N3CCOCC3)c2)cc1	12.7%	.	7.4%	.	-1.7%	-0.2%	3.3%	4.0%
COc1ccc(C/C(C)=N/NC(=S)Nc2ccc(Cl)cc2)cc1	-1.5%	.	?	.	-4.8%[46.1 µM]	2.4%	-1.7%	-7.3%
O=C(CSc1nnnn1C1CCCC1)NCc1cccs1	0.9%	.	8.7%	.	-13.8%	0.9%	-22.0%	9.5%
Cc1ccc(NC(=O)CN(C)S(=O)(=O)c2ccc3c(c2)n(C)c(=O)c(=O)n3C)c(C)c1	0.0%	-1.9%	3.1%&-10.2%[46.1 µM]	-5.9%	-1.7%&9.4%[46.1 µM]	11.0%	-12.4%&-18.0%	-5.2%
CC(=O)Nc1ccc(S(=O)(=O)N2CCC(C(=O)N[C@@H](Cc3ccccc3)C(=O)O)CC2)cc1	3.0%	.	.	.	.	10.6%	-25.8%	12.2%
COc1ccc([N+](=O)[O-])cc1NC(=O)C(C)N1CCCC1 (stereo not drawn)	6.6%	.	19.7%	.	-6.6%[46.1 µM]	3.5%	-13.8%	2.7%
Cc1noc(C)c1S(=O)(=O)N1CCN(S(=O)(=O)c2ccccc2C#N)CC1	12.6%	.	15.6%[46.1 µM]	.	5.8%[46.1 µM]	0.4%	-13.4%	0.0%
CCCCCc1nnc(NC(=O)c2ccc(N3CCCC3=O)cc2)s1	.	.	0.2%	.	-0.3%	1.7%	5.6%	5.6%
CCN(CC(=O)NC1CCCC1)S(=O)(=O)c1ccc(Br)cc1	1.5%	.	-3.8%	.	.	?	-15.5%	5.0%
c1ccc(-c2nnsc2-c2nc3ccccc3[nH]2)cc1	4.4%	.	0.0%	.	-24.9%[46.1 µM]	-7.0%	?	2.4%
CCOC(=O)CCC(=O)Nc1nnc2n1CCS2	.	-0.5%	-1.7%[46.1 µM]	5.1%	.	.	13.1%	.
